RGS16-Gao HTS – regulators of human RGS16-Galphao interaction; binding response (% of control), % at 10 µM; AID 1441; 220,000 tested, 0.38% active; O15492+P09471; bead-based flow cytometry RGS16-Galphao binding, fluorescence; actives lie on both sides;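 active means below 25% or above 175%, edge rows of some plates excepted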;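 further: Galphao activated by GDP with aluminum fluoride before binding; 100% = wells without compound and 0% = beads without RGS; some results beyond the cut were filed as inactive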
PKD1 inh – blocks activity of human protein kinase D1. PKD1 kinase fluorescence polarization assay. 200,000 tested, 0.056% active. Q15139. AID 797. inhibition, %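 (about 10 µM by stock and volumes)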;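 active means inhibition of 50% or more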;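 further: controls were vehicle for no effect and a reference inhibitor for full effect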
Target sequence (Q15139 whole entry, looked up): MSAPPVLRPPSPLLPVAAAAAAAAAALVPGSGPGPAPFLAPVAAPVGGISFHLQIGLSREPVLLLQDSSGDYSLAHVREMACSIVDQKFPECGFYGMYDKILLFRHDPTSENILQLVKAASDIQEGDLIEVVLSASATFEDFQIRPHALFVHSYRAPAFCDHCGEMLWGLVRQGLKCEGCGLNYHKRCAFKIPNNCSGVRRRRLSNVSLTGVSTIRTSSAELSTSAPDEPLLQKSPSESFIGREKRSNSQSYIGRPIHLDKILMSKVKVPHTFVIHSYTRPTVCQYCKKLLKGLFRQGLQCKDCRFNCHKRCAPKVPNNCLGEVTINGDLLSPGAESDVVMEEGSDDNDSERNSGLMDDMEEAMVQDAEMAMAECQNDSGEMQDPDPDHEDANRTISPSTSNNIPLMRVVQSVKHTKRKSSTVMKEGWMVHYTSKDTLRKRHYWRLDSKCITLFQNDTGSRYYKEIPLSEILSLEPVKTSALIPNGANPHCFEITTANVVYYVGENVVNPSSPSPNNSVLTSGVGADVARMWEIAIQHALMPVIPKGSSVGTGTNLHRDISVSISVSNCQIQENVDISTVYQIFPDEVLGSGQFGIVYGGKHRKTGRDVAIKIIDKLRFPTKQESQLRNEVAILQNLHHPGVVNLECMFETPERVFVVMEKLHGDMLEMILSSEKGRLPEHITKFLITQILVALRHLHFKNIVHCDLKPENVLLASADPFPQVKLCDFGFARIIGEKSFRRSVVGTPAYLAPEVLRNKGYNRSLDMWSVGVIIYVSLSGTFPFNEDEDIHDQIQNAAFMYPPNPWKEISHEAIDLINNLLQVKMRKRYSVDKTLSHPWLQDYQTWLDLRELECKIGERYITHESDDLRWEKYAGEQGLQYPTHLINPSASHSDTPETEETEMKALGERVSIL
GALR2 agonist – GALR2 (human) receptor agonism; AID 803; 140,000 tested, 0.48% active; activation, %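 (tested at 5 µM)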; O43603; GALR2-expressing cells, agonist activation read-out;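 active means above mean plus 3 SD of all compounds, about 5% in these data, not always enough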;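 further: 0% = vehicle buffer wells and 100% = reference agonist at full effect; tested in CHO reporter cells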
HSV augment – HSV replication enhancement; HSV replication augmentation in cells, fold increase; AID 1956; 220,000 tested, 0.005% active; maximum fold increase;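 active means peak rise of 1.5-fold or more in the series; tested in PC3 cells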;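 further: first round at 10 µM; read as green reporter fluorescence; hits show the peak of a series up to 25 µM; 1 = signal of infected wells without compound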
Insulin prom inh – TRM-6 insulin promoter activity inhibition. TRM-6 cells (human fetal islet line), insulin promoter-eGFP reporter, imaging; reporter expression induced with tamoxifen. inhibition, % at 2 µM. 130,000 tested, 0.9% active;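 active means inhibition above the mean plus 3 SD, with well images judged a real hit on visual review, cut at about 60% in these data, passing the limit was not always enough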
Insulin prom inh cell count – further read-out of Insulin prom inh, marked with its call; normalized cell count, %; measured here: cell count, toxicity; reference of the scale not given here;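 cells exposed to compound for 48 h; stained nuclei by imaging scaled within each plate; lower means fewer cells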
HSV augment primary fold – second read-out of HSV augment, no call of its own (marks repeat the call); fold increase; compound at 10 µM; measured here: primary screen fold increase 10 uM; tested in PC3 cells;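 GFP signal in the first replicate; 1 = infected wells without compound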
* hit, by the source's call; i = inactive; nt = no result given; [ ] = remark or other dose.

SMILES	RGS16-Gao HTS	PKD1 inh	GALR2 agonist	HSV augment	HSV augment primary fold	Insulin prom inh	Insulin prom inh cell count
CCC(C)NC(=O)CS(=O)Cc1nc(-c2cccc(C)c2)oc1C (stereo unspecified)	101	11	-1.6	i	0.89	nt	nt
CCN(c1ccccc1)c1cc(C)nc2nc(C)nn12	93	7	-1.7	i	0.87	nt	nt
COc1c(S(=O)(=O)Nc2cccnc2)ccc(Cl)c1Cl	104	-7	nt	i	1	nt	nt
O=C(/C=C/c1cccc(O)c1)c1ccc(N2CCOCC2)cc1	114	nt	nt	i	0.7	nt	nt
CCCCCc1ccc(OCCCC[n+]2cccc(C)c2)c(CCCCC)c1	107	2	nt	i	0.68	-144	32
Cc1cc(C(=O)Nc2ncc(C)s2)c2ccccc2n1	114	-8	nt	i	0.94	5	128
COc1ccccc1-n1c(C)cc(SC)c(C(C)=O)c1=S	102	1	-1.7	i	0.96	40	62
CCc1nc(SCC(=O)OC(C)C)c2ccccc2n1	102	-4	nt	i	0.94	-25	115
N#Cc1cc(Oc2ccccc2)c(-n2nnc3ccccc32)cc1C#N	110	5	-1.3	i	0.87	52	95
Cc1ccc(C)n1-c1ccc(C(=O)NCc2cccnc2)cc1	105	0	nt	i	0.86	-18	92
COC(=O)c1ccc(C(=O)OC)c(NC(=O)CN(c2ccccc2)S(=O)(=O)N(C)C)c1	88	8	nt	i	0.64	nt	nt
COc1ccccc1/C=N/NC(=O)c1ccc(NC(=O)c2cccc([N+](=O)[O-])c2)cc1	72	-4	nt	i	0.88	29	153
CC1CCN(C(=O)c2ccc(N(C)S(C)(=O)=O)cc2)CC1	95	-1	-1.9	i	0.83	-39	181
O=C(O)c1cccc(NC(=O)c2ccc3c(c2)C(=O)N(Cc2ccco2)C3=O)c1	104	-9	nt	i	1	nt	nt
COc1ccc(S(=O)(=O)n2nc(OC(=O)c3ccco3)cc2N)cc1	95	5	-0.6	i	0.92	18	69
CCN(CC)c1ccc(NC(=O)c2ccccc2)cc1S(=O)(=O)Nc1ccccc1OC	29	5	-1.6	i	0.97	5	89
CCOC(=O)c1c(C)n(C)c2ccc(O)c(CN(C)C)c12	110	4	-0.6	i	0.96	nt	nt
CCOC(=O)CSc1nnc(-c2ccoc2C)n1-c1ccc(OCC)cc1	97	5	-1.7	i	0.77	nt	nt
COc1cc(/C=N/NC(=O)c2cccnc2)ccc1OCC(=O)Nc1ccccc1Cl	94	3	nt	i	0.89	nt	nt
C=CCn1c(SCC(=O)c2[nH]c(C)c(C(=O)OCC)c2C)nc2scc(-c3ccc(OC)c(OC)c3)c2c1=O	191*[activator]	-1	-0.7	i	1	25	85
COc1cc(OC)c(C(=O)OC(C)C(=O)Nc2cccc(C(F)(F)F)c2)cc1OC (stereo unspecified)	109	1	-1.8	i	1	18	103
COC(=O)/C(=C/Nc1cccc2ccccc12)[N+](=O)[O-]	174	1	-0.9	i	0.95	55	108
CCOC12NC(=O)CC(=O)N1C(c1ccccc1)=CS2 (stereo unspecified)	114	-3	-0.8	i	0.97	-26	128
O=C(Nc1ccccn1)C1(c2ccccc2)CCCC1	118	-4	0.3	i	1	-18	145
Cc1ccc(S(=O)(=O)N2CCN(Cc3ccsc3)CC2)cc1	123	6	nt	i	1	0	130
Cc1cc(C)c(NC(=S)N2CCC(N(C)CC3CCCO3)CC2)c(C)c1 (stereo unspecified)	129	-2	-1.8	i	1	44	156
O=C(CSc1nc2cccnc2n1Cc1ccccc1)N1CCc2ccccc21	nt	-4	-2.5	nt	nt	13	182
COc1cccc(NC(=O)c2cnsn2)c1	100	2	-1.9	i	1.1	39	139
C=C(C)COc1ccc(-c2nc(N)ncc2Oc2ccccc2OC)c(O)c1	97	-2	-0.1	i	0.75	nt	nt
CCOc1ccc(CC(=O)NCc2ccc3c(c2)cc(C)n3C)cc1	166	4	nt	i	1.1	-10	47
O=C(Nc1cccc(C(F)(F)F)c1)c1cccnc1N1CCN(c2ccccc2)CC1	98	-15	-3.1	i	1.1	71	103
Cc1ccccc1CN1C(=O)C2(OCCCO2)c2ccccc21	103	19	-0.3	i	1	nt	nt
N#Cc1c(N)sc2c1CCCCCC2	97	6	-1.1	i	0.89	nt	nt
CCn1c(=O)c(C(=O)CN2CCN(S(=O)(=O)c3ccc(C)cc3C)CC2)c(N)n(Cc2ccccc2)c1=O	161	16	-0.3	i	0.58	8	76
O=C(NCCCN1CCCC1=O)c1cccc(Oc2ccccc2)c1	104	5	nt	i	0.96	nt	nt
CCOC(=O)COc1cccc2c(=O)n(CC(=O)NCCc3ccc(OC)c(OC)c3)ccc12	95	-5	-1.3	i	0.97	20	135
Cc1cc(S(=O)(=O)n2ccnc2)c(Cl)cc1Cl	95	3	nt	i	0.92	19	101
COc1cccc(CN2CCN(Cc3ccc4c(NC(C)=O)cccc4n3)CC2CCO)c1 (stereo unspecified)	101	0	nt	i	1.1	nt	nt
COC(=O)c1cccc(NC(=S)Nc2ccccc2Cl)c1	103	nt	nt	i	0.86	nt	nt
CC12CCC(C(=O)Nc3cc(Cl)ccc3Cl)(C(Br)C1=O)C2(C)C (stereo unspecified)	106	-5	1.0	i	1.1	3	115
COc1ccc(C(=O)NC(=S)Nc2ccc(CN3CCOCC3)cc2)cc1OC	100	nt	nt	i	1	nt	nt
COCc1n[nH]c(=S)n1-c1ccccc1	100	-7	-1.5	i	1.1	16	103
CCOC(=O)c1oc2ccc(S(=O)(=O)n3nc(-c4ccc(Cl)cc4)cc3N)cc2c1C	106	-2	-2.0	i	0.74	nt	nt
CCC(Sc1nc2cc3c(cc2c(=O)n1Cc1ccco1)OCO3)C(=O)NCCOC (stereo unspecified)	103	-4	-1.8	i	0.79	-3	88
CCc1[nH]nc2c1C(c1cccc(OC(=O)N3CCOCC3)c1)C(C#N)=C(N)O2 (stereo unspecified)	107	-6	-1.1	i	0.88	-350	80
CCc1ccc(NC(=O)CCN2C(=O)c3cccnc3C2=O)cc1	101	3	-1.4	i	0.97	-55	90
Cc1c(C(=O)NCCN2CCOCC2)oc2ccccc12	101	-3	-5.6	i	1	-9	235
O=[N+]([O-])c1ccc(Sc2cccc3cccnc23)cc1	116	-4	-3.3	nt	nt	31	70
CCOc1ccc2[nH]c(=O)c(CN(CCc3ccccc3)C(=O)N3CCOCC3)cc2c1	103	-4	-1.9	nt	nt	27	73
O=C(/C=C/c1ccccc1Cl)N(c1ccccn1)C1CCCCC1	100	-10	0.0	i	1	nt	nt
Cc1ccc(/C=N/NC(=O)CSc2nnc(-c3ccc(Cl)cc3)n2-c2ccccc2)o1	101	-12	-1.6	i	0.74	-47	91
COC(=O)c1cc(OC)nc2ccc(Br)cc12	97	nt	nt	i	1	nt	nt
O=S(=O)(NC1c2cccc3cccc(c23)C1N1CCNCC1)c1ccccc1 (stereo unspecified)	105	-2	-2.5	i	1.1	nt	nt
CCOC(=O)Oc1ccc2c(c1)C(C)=CC(C)(C)N2C(=O)OCC	87	-13	-2.0	nt	nt	50	141
NC(=O)c1ccc(Oc2ccc(Cl)cc2)c([N+](=O)[O-])c1	105	nt	nt	i	0.86	nt	nt
CCOC(=O)C(=CNc1ccccc1Cl)C(=O)OCC	106	nt	nt	i	0.82	nt	nt
CC1CCN(CCNC(=O)CN(C)S(=O)(=O)c2cccc3nsnc23)CC1	99	8	-2.6	i	0.87	nt	nt
CC1CCCN(c2nc3nonc3nc2Nc2ccccc2F)C1 (stereo unspecified)	112	-1	nt	i	0.95	nt	nt
COc1ccc2[nH]c(=O)c(CN(Cc3cccs3)C(=S)Nc3ccccc3)cc2c1	103	-12	-0.8	i	0.66	-13	105
O=C(NC(=S)NCC1CCCO1)c1cccc([N+](=O)[O-])c1 (stereo unspecified)	120	-10	-0.8	i	1	13	61

Full records, looked up by structure:
Listed for COc1ccc2[nH]c(=O)c(CN(Cc3cccs3)C(=S)Nc3ccccc3)cc2c1 → RGS16-Gao HTS = 103; PKD1 inh = -12; GALR2 agonist = -0.8; HSV augment = i; HSV augment primary fold = 0.66; Insulin prom inh = -13; Insulin prom inh cell count = 105
Listed for CC1CCCN(c2nc3nonc3nc2Nc2ccccc2F)C1 (stereo unspecified) → RGS16-Gao HTS = 112; PKD1 inh = -1; GALR2 agonist = nt; HSV augment = i; HSV augment primary fold = 0.95; Insulin prom inh = nt; Insulin prom inh cell count = nt
Listed for CCOC(=O)C(=CNc1ccccc1Cl)C(=O)OCC → RGS16-Gao HTS = 106; PKD1 inh = nt; GALR2 agonist = nt; HSV augment = i; HSV augment primary fold = 0.82; Insulin prom inh = nt; Insulin prom inh cell count = nt

Going on with the list:
SMILES	RGS16-Gao HTS	PKD1 inh	GALR2 agonist	HSV augment	HSV augment primary fold	Insulin prom inh	Insulin prom inh cell count
COc1ccccc1NC(=O)CSc1nc2sc(C)c(C)c2c(=O)n1Cc1ccco1	96	-2	-0.5	i	0.76	54	221
COc1ccc(NC(=O)C2CC(=O)N(C)C(=Nc3ccc4c(c3)OCO4)S2)cc1 (stereo unspecified)	113	-15	-0.2	i	0.81	-56	57
C[N+](C)(CC#Cc1ccccc1)CC(=O)c1ccccc1	105	3	-1.0	i	0.94	0	165
Cc1ccc(N(C(=O)c2ccc(Br)o2)C2C=CS(=O)(=O)C2)cc1 (stereo unspecified)	122	-7	-0.8	i	1	nt	nt
c1cncc(-c2nc(N3CCOCC3)c3c4c(sc3n2)CCC4)c1	102	6	nt	i	0.89	nt	nt
N#Cc1cc([N+](=O)[O-])ccc1N1CCN(c2ccccc2O)CC1	99	-3	nt	i	1	nt	nt
COc1ccccc1/C=N/n1c(N)c(C(=O)NC2CCCCC2)c2nc3ccccc3nc21	100	7	-1.8	i	0.69	-10	150
Cc1[nH]nc(-c2ccc(O)cc2O)c1-c1nc2ccccc2s1	104	-4	nt	i	0.94	-38	75
O=C(Cn1cnc2c(nnn2Cc2ccc(F)cc2)c1=O)NCc1ccc2c(c1)OCO2	104	-4	-2.5	i	0.79	-19	155
CC(C)Oc1ccc(C(=O)Nc2ccc(NC(=O)c3ccco3)c(Cl)c2)cc1	98	4	-2.9	i	0.83	69	91
N#Cc1ccc[n+](CC(=O)c2ccc(NC(=O)c3ccccc3)cc2)c1	99	nt	nt	i	1	nt	nt
CCCn1c(SCC(=O)OCc2ccccc2)nc2c1c(=O)n(C)c(=O)n2C	52	7	-1.9	i	0.93	nt	nt
O=C(Cn1nnc2c(cnn2-c2ccc(F)cc2)c1=O)c1ccccc1F	101	0	0.2	i	0.85	-18	190
CCOC(=O)C1CCN(c2nc(N)c3c(N)nc(SCC(=O)O)cc3c2C#N)CC1	92	nt	nt	i	1.3	nt	nt
CC(=O)C1=C(C)NC2=C(C(=O)CC(C)(C)C2)C1C (stereo unspecified)	104	-1	nt	i	0.96	36	153
Nc1c2c(nc3ccc(Br)cc13)N(C1CCCCC1)CC2	106	-1	nt	i	0.9	22	160
COc1cc(OC)c(C2SCCS2)c(OC)c1	113	-4	-1.4	i	0.99	nt	nt
CCCOC(=S)Nc1ccccc1	109	5	-2.2	i	1	-36	128
CCOC(=O)c1cnc2c(OC)cccc2c1NCc1cccnc1	89	-2	nt	i	0.95	nt	nt
Clc1ccc(N2CCN(c3cnc4ccccc4n3)CC2)cc1	101	-5	1.3	i	0.94	-7	166
C=CCNC(=S)NNC(=O)COc1c(Cl)cc(Cl)cc1Cl	96	-1	-0.4	i	1.1	nt	nt
Cc1ccc(C(NC(=O)NC(C)c2ccccc2)C(Cl)(Cl)Cl)cc1F (stereo unspecified)	96	-3	-1.0	i	0.8	nt	nt
CCOC(=O)N1CCN(C(=O)Nc2ccc3nccnc3c2)CC1	105	-9	-0.9	i	1	74	60

Compounds listed so far that have bromine (4):
SMILES	RGS16-Gao HTS	PKD1 inh	GALR2 agonist	HSV augment	HSV augment primary fold	Insulin prom inh	Insulin prom inh cell count
CC12CCC(C(=O)Nc3cc(Cl)ccc3Cl)(C(Br)C1=O)C2(C)C (stereo unspecified)	106	-5	1.0	i	1.1	3	115
COC(=O)c1cc(OC)nc2ccc(Br)cc12	97	nt	nt	i	1	nt	nt
Cc1ccc(N(C(=O)c2ccc(Br)o2)C2C=CS(=O)(=O)C2)cc1 (stereo unspecified)	122	-7	-0.8	i	1	nt	nt
Nc1c2c(nc3ccc(Br)cc13)N(C1CCCCC1)CC2	106	-1	nt	i	0.9	22	160

Bioassay records from PubChem.
